# Screens (PubChem)
# TRPML1 agonist = qHTS for Agonists of the Human Mucolipin Transient Receptor Potential 1 (TRPML1). Mucolipin-1 (Homo sapiens), Q9GZU1. TRPML1-expressing cells, Ca2+ dye fluorescence, FDSS; host cell line not named in the record; reference of the full effect not given here. activation, % (test concentration not listed). actives 0.12% (n = 410,000); in the data active = activation above about 50%; inconclusive = about 30% to 50%; inactive = below about 30%; also: 0% is about no effect; the text of the record puts the active cut at 80%
# Target sequence (Q9GZU1 whole entry, looked up): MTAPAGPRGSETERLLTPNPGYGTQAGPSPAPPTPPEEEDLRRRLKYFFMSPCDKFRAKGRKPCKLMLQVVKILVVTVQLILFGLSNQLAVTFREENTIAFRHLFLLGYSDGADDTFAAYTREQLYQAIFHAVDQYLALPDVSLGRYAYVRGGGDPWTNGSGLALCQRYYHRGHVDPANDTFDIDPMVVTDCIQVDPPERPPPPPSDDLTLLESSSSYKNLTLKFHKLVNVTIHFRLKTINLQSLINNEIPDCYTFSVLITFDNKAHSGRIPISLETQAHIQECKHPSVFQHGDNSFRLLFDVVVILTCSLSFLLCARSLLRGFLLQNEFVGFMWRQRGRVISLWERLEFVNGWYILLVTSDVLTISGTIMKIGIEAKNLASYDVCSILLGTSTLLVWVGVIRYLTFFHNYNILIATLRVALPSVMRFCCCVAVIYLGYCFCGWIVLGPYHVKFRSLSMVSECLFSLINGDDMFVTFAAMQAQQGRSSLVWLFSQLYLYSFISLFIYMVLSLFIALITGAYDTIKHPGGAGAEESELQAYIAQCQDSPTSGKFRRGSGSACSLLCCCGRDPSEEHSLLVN
#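 TRPML1-DL cells, Tet-induced overnight (~16 h, 37 degrees C), loaded 45-90 min at room temperature with Ca8 no-wash calcium dye plus quencher. FDSS fluorescence: 10 s baseline, compound pin-transfer, 110 s agonist read, then EC80 54-4 (4uM final) and 110 s antagonist read.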
# TRPML1 blocker = qHTS for Inhibitors of the Human Mucolipin Transient Receptor Potential 1 (TRPML1). Mucolipin-1 (Homo sapiens), Q9GZU1. TRPML1-inducible cells, Ca2+ dye fluorescence, FDSS; hits give low values; inhibition of EC80 agonist-evoked calcium signal. activity change, negative = inhibition, % (concentration not given with the values). actives 0.02% (n = 390,000). AID 624415, 2012; in the data active means activity change below about -50%; inconclusive means about -30% to -50%; inactive means above about -30%;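 also: stimulus is agonist 54-4 at its EC80 concentration; % is scaled to controls: 0 for no effect and ±100 for the full control effect; compound concentration not given in the record; the text of the record puts the active cut at -80%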
#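 Calcium fluorescence in TRPML1-DL cells induced overnight with Tet: a 110 s read after compound pin addition, then a 110 s antagonist read after challenge with 54-4 at 4 uM final (EC80).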
# * hit, by the source's call; ? = inconclusive. Not all compounds are listed (hit frequency here may not be typical).
# Values run as follows: TRPML1 agonist, TRPML1 blocker
COc1ccc(C2C(C(=O)Nc3cccnc3)=C(C)Nc3nc(SCc4ccccc4)nn32)cc1 (stereo not given)
→ -0.4, 11.2
CCCNc1nc2c(c(=O)n(C)c(=O)n2C)n1CC(O)COc1ccccc1 (stereo not given)
→ 0.4, 7.7
CCn1c(=O)n(CC2CCC(C(=O)NC(C)C)CC2)c(=O)c2sccc21 (stereo not given)
→ -0.4, 2.5
COc1ccccc1OC(C)C(=O)Nc1cccc(-c2nc3ccccc3s2)c1 (stereo not given)
→ -0.1, 1.7
O=S(=O)(Nc1cccc(-c2ccc(N3CCOCC3)nn2)c1)c1ccc(F)cc1F
→ -0.8, -5.0
COc1ccc(CN2C(=O)C(NC(=O)c3ccc(C)cc3)(C(F)(F)F)N=C2c2ccccc2)cc1 (stereo not given)
→ -0.4, 9.6
COc1ccccc1C(=O)Nc1c(C(=O)Nc2ccc(C)cc2)oc2ccccc12
→ -0.7, -17.4
CC(NC(=O)c1ccc2c(c1)N(Cc1ccc(Cl)cc1)C(=O)c1ccccc1S2=O)c1ccccc1 (stereo not given)
→ 1.4, -9.7
CCC(=O)N1c2ccc(S(=O)(=O)CCC(=O)NCc3ccc(OC)cc3)cc2CC1C (stereo not given)
→ 0.7, -12.2
CCOc1ccc(S(=O)(=O)N(CC(=O)NCCSc2ccccc2)c2ccccc2)cc1
→ -0.4, 5.8
CCOc1ccc(-n2c(C)nc3c(cnn3-c3ccc(C)cc3)c2=O)cc1
→ -0.8, 27.9
CCCN1CCN(CCCNC(=O)Cn2c(-c3cccs3)cc3ccccc32)CC1
→ 0.8, -20.4
Cc1c(CCNC(=O)c2ccc(C(C)(C)C)cc2)sc2nc(-c3ccc(F)cc3)nn12
→ 0.0, 15.6
CCCCSc1nnc2n(-c3ccc(OC)cc3)c(=O)c3c4c(sc3n12)COC(C(C)C)C4 (stereo not given)
→ -0.9, -7.9
COc1ccc(C2(Nc3cccc(C(=O)O)c3C)C(=O)c3ccccc3C2=O)cc1
→ 2.0, -6.8
CCN(CC)C(=O)Cn1cc(SCC(=O)Nc2ccccc2F)c2ccccc21
→ 1.3, -16.6
O=C(Cn1nc(C(F)(F)F)c2c1CCCC2)Nc1ccc(Cl)cc1
→ 0.8, 10.1
CCOC(=O)c1c(C)oc2ncnc(Nc3ccc(OC)c(OC)c3)c12
→ -1.1, -10.8
CCOc1ccc2c(c1)c(=O)c(C(=O)c1ccc(CC)cc1)cn2CC(=O)Nc1ccccc1OC
→ 0.3, -1.9
Cc1ccc2sc(N(CCCN(C)C)C(=O)c3ccco3)nc2c1C
→ 2.1, 16.1
CC(=O)Nc1ccc(S(=O)(=O)NCc2cccn2Cc2cccc(C)c2)cc1
→ -0.2, 16.2
COc1ccc2nc3oc(C(=O)N4CCN(c5cc(C)ccc5C)CC4)cc3cc2c1
→ -0.8, -4.7
Cc1cc(C)nc(-n2nc(C)c3c2NC(=O)CC3c2ccccc2OC(C)C)n1 (stereo not given)
→ -0.4, -28.5
O=C(O)CCc1ccc(-c2ccc(Br)cc2)n1-c1ccccc1O
→ -0.3, 3.5
COc1ccc(-c2nc3ccccc3n3c(-c4cccc(C)c4)c4c(=O)n(C)c(=O)n(C)c4c23)cc1
→ -0.7, 11.5
Cn1c(=O)c2cc(C(=O)NCCCN3CCN(c4ccc(F)cc4)CC3)sc2c2ccccc21
→ -0.1, 9.3
COc1ccc(-c2c(C)c3cc(OC(=O)N4CCOCC4)ccc3oc2=O)cc1
→ 1.5, 14.2
CC1CCN(C(=O)c2c(NC(=O)c3ccccc3F)sc3c2CCC(C(C)(C)C)C3)CC1 (stereo not given)
→ 1.3, 0.6
CCN(CC)S(=O)(=O)c1ccc(C(=O)NCCSc2c(-c3ccc(F)cc3)[nH]c3ccccc23)cc1
→ 0.1, -4.4
CCSc1nnnn1-c1cccc(C(=O)O)c1
→ -0.3, 7.4
COCCCn1c(=N)c(C(=O)NCC2CCCO2)cc2c(=O)n3cc(C)ccc3nc21 (stereo not given)
→ -1.0, 1.7
CCn1c(=O)c2sccc2n2c(CCC(=O)Nc3ccc(C(C)C)cc3)nnc12
→ 0.3, -5.3
Cc1ccc(Cl)cc1NC(=O)Cc1ccc(-n2c(C)nc3cccnc32)cc1
→ 1.0, 15.9
CC(=O)Nc1nnc(SCc2cc(=O)c3cc(C)ccc3[nH]2)s1
→ 0.6, 18.0
CCN(CC)S(=O)(=O)c1ccc(NC(=O)c2c(C)oc3ncnc(N4CCCCC4)c23)cc1
→ -0.9, 1.8
COc1ccc(Cn2c(C(=O)O)c(CNCc3cccc(OC)c3)c3ccc(C)cc32)cc1
→ 2.2, ?
CCC(CC)C(=O)Nc1nnc(S(=O)(=O)N(C)c2cc(C)cc(C)c2)s1
→ 2.2, 5.0
CCCCC(=O)Nc1ccc(OCc2cc(=O)n3c(C)csc3n2)cc1
→ -0.6, -21.7
CC(=O)N1CCc2c(sc3c2c(=O)n(-c2ccccc2)c(=O)n3CC(=O)Nc2ccccc2)C1
→ 0.5, -22.4
CCC(Oc1ccccc1)C(=O)Nc1cc(-c2cccc(C)c2)nn1-c1ccccc1 (stereo not given)
→ 0.9, -7.4
CCOc1ccc(NC(=O)CSC2=Nc3ccccc3C3=NC(CCC(=O)NCc4ccccc4)C(=O)N23)cc1 (stereo not given)
→ -0.9, -3.8
O=C(Cn1c(=O)n(Cc2ccco2)c(=O)c2ccc(C(=O)NC3CCCC3)cc21)Nc1ccc(F)cc1
→ 0.9, -24.3
COc1cccc(N2CCN(C(=O)c3cccn3-c3nnc(N4CCCC4)s3)CC2)c1
→ 2.3, -6.3
CCC(Sc1nc2ncccc2o1)C(=O)Nc1ccc(OC)c(OC)c1 (stereo not given)
→ 1.7, 10.8
CNC(=O)C1CCC(Cn2c(=O)c3sccc3n(Cc3cc(C)ccc3C)c2=O)CC1 (stereo not given)
→ -0.5, -15.0
Cc1ccc(Nc2cc(C(=O)NCCc3ccccc3)c3ccccc3n2)c(C)c1
→ 2.7, -3.2
Cc1ccc(NC(=O)C2CCCN(c3cnccn3)C2)cc1Cl (stereo not given)
→ 4.6, 35.9
CCOC(=O)c1cnc2c(ccc3ccccc32)c1Nc1ccc(C(C)=O)cc1
→ -0.3, 4.6
COc1ccccc1CNC(=O)c1cc(S(=O)(=O)N2CCCC(C)C2)cn1C (stereo not given)
→ -0.2, -2.5
CCOc1ccc2oc(=O)cc(CN3CCN(c4ccc(OC)cc4)CC3)c2c1
→ -0.1, 2.7
CC1CCN(C(=O)CSc2nnc(-c3ccccc3Cl)o2)CC1
→ -0.2, -5.4
CCOc1ccc(-c2c(C)nn3c(-c4ccccc4)c(C(=O)NCCOC)cnc23)cc1OCC
→ 0.8, -5.6
Cc1ccc(-c2nc3scc(CCNC(=O)Cc4ccc(Cl)cc4)n3n2)cc1
→ 1.5, 17.1
O=C(NC1CC(=O)N(c2cccc(F)c2)C1)c1cc2ccccc2o1 (stereo not given)
→ -0.4, 3.2
CCCCCCC1CCC(C(=O)NC(C(=O)O)C(C)C)CC1 (stereo not given)
→ -0.5, -10.0
Cc1cc(C)c2c(CC(=O)Nc3c(C(=O)c4ccc(F)cc4)oc4ccccc34)coc2c1
→ -0.3, -4.1
COc1ccc(CNC(=O)c2cc3c(s2)-c2c(C)cccc2OC3)cc1
→ 3.7, -23.7
COc1ccccc1Nc1ncc2c(n1)CCN(Cc1cc(F)cc(F)c1)C2
→ 1.3, -21.0
CCCCOc1ccc(CNC(=O)c2cc3n(n2)CCCN(Cc2ccc(C)cc2)C3=O)cc1
→ 2.5, 2.4
Cc1cccc(N2CCN(C(=O)c3cccc(-n4c(C)nc5cccnc54)c3)CC2)c1C
→ -0.3, -20.9

# Next entries
# Values run as follows: TRPML1 agonist, TRPML1 blocker
CC(C)NS(=O)(=O)c1ccc2nc(NC(=O)c3cncc(Br)c3)sc2c1
→ -0.2, -17.4
COc1cc(C(=O)n2nc(-c3ccco3)nc2NCc2ccc(Cl)cc2)cc(OC)c1OC
→ -0.4, 4.8
CCCOc1ccc(CNC(=O)c2oc3ccc4c(c3c2C)C(=O)CC(C)(CC)O4)cc1 (stereo not given)
→ ?, -12.6
CCc1ccc(NC(=O)CC2C(=O)N(c3cccc(OC)c3)C(=O)N2Cc2ccc(F)cc2)cc1 (stereo not given)
→ 1.1, -10.9
COc1ccc2c(CNCc3cccs3)c(C(=O)O)n(Cc3ccc(F)cc3Cl)c2c1
→ 0.1, 30.8
CCCOc1ccc(-c2cccc(NS(=O)(=O)c3ccccc3)c2)nn1
→ -0.2, -12.6
Cc1c(Cl)cccc1NC(=O)CSc1nc2ncccc2o1
→ 1.8, -23.4
Cc1sc(NC(=O)C2c3ccccc3Oc3ccccc32)c(C(=O)OC(C)C)c1C
→ 0.7, -1.8
COC(=O)Cc1c(C)c2cc3c(c(C)c2oc1=O)OCN(CCc1ccc(OC)cc1)C3
→ -0.3, -2.6
Cc1ccsc1CCN1C(=O)N(c2ccccc2)C(=O)C1CC(=O)Nc1ccc(F)cc1 (stereo not given)
→ 0.9, -12.5
Cc1oc(-c2ccc(C(=O)NCCCOC(C)C)cc2)nc1CS(=O)(=O)c1ccccc1
→ -1.1, 7.2
COc1cc(OC)cc(-c2cc3nc(C)c(CCC(=O)Nc4ccc(F)c(Cl)c4)c(C)n3n2)c1
→ -0.3, -12.1
O=C(CSc1c2c(nc3ccc(Cl)cc13)CCCC2)NCc1ccccc1Cl
→ 4.9, -9.0
CCOC(=O)c1cc2c(=O)n3ccccc3nc2n(Cc2ccco2)c1=NC(=O)c1cccc(F)c1
→ 12.2, 8.0
Cc1cc(Cl)ccc1OCC(=O)N(Cc1ccco1)Cc1ccco1
→ 2.7, 38.9
CCc1ccc(-c2nc(CN3CCC(C(=O)NCCc4ccc(Cl)cc4)CC3)c(C)o2)cc1
→ -0.3, 8.2
COC(=O)c1ccc(NC(=O)Cn2c(=O)nc(-c3ccccc3)c3ccccc32)cc1
→ 2.8, -19.6
COc1cccc(Cn2nnc3c(=O)[nH]c(C4CCCN(C(=O)c5ccc(C)cc5)C4)nc32)c1 (stereo not given)
→ 0.1, 19.4
CC(=O)c1ccc(NC(=O)COc2ccccc2-c2nc(C)no2)cc1
→ 0.8, 6.0
Cc1cccc(Cn2cnc3c(oc4ccccc43)c2=O)c1
→ -1.1, 5.5
O=C(Cc1ccc(NC(=O)N2CCSc3ncccc32)cc1)NCc1cccc(Cl)c1
→ 0.9, -5.0
Cc1cccc(NC(=O)c2cc3c(=O)n(Cc4ccco4)ccc3nc2C)c1
→ 0.5, 3.7
Cc1c(C(=O)Nc2cccc(C(F)(F)F)c2)oc2ccc3c(c12)C(=O)CC(C)(C)O3
→ ?, 1.9
COc1ccc(C(=O)NCC(=O)OCc2cc(=O)n3nc(C4CCCCC4)sc3n2)cc1
→ -1.3, -1.4
COc1ccc(CNC(=O)C2CCC(CNS(=O)(=O)c3ccc4c(c3)CCCC(=O)N4)CC2)cc1 (stereo not given)
→ -0.9, 4.3
COC(=O)c1ccc(NC(=O)Cc2coc3cc(C)ccc23)cc1
→ 3.1, 95.2
Cc1ccc(NC(=O)CSc2nc(=O)n(CCCN(C)C)c3c2CCC3)cc1F
→ -0.4, -10.2
O=C(CSc1nc2ccccc2nc1Cc1ccc(F)cc1)Nc1ccc2c(c1)OCO2
→ 0.3, 37.1
COc1ccc(S(=O)(=O)c2c(Nc3ccc(F)cc3)sc(C(=O)c3ccc(C)cc3C)c2N)cc1
→ 3.9, -8.5
COCCCNC(=O)C1CCN(Cc2cc3ccccc3n2Cc2ccccc2C)CC1
→ 3.1, 12.9

# 6 compounds already listed, sorted by length of the SMILES, low to high.
# Values run as follows: TRPML1 agonist, TRPML1 blocker
Cc1cccc(NC(=O)c2cc3c(=O)n(Cc4ccco4)ccc3nc2C)c1
→ 0.5, 3.7
O=C(CSc1nc2ccccc2nc1Cc1ccc(F)cc1)Nc1ccc2c(c1)OCO2
→ 0.3, 37.1
COc1ccc2c(CNCc3cccs3)c(C(=O)O)n(Cc3ccc(F)cc3Cl)c2c1
→ 0.1, 30.8
COc1ccc(C(=O)NCC(=O)OCc2cc(=O)n3nc(C4CCCCC4)sc3n2)cc1
→ -1.3, -1.4
Cc1oc(-c2ccc(C(=O)NCCCOC(C)C)cc2)nc1CS(=O)(=O)c1ccccc1
→ -1.1, 7.2
Cc1c(C(=O)Nc2cccc(C(F)(F)F)c2)oc2ccc3c(c12)C(=O)CC(C)(C)O3
→ ?, 1.9

# (more compounds)
# Values run as follows: TRPML1 agonist, TRPML1 blocker
O=C(Nc1cccc(C(F)(F)F)c1)C1CCN(c2nnc(-n3cccc3)s2)CC1
→ -1.2, -10.2
N#C/C(=C\c1ccccc1)C(=O)Nc1sc2c(c1C(N)=O)CCC2
→ 0.3, -4.6
CCN(CC)CCC(c1ccc(N(C)C)cc1)c1c(OC)cc(OC)c2c1OC(=O)CC2c1ccc(N(C)C)cc1 (stereo not given)
→ 0.2, 13.9
Cc1ccc(S(=O)(=O)NCC(c2ccc(N(C)C)cc2)N2CCc3ccccc32)cc1 (stereo not given)
→ 2.5, 3.5
Cc1cc(=O)[nH]c2nnc(SCC(=O)Nc3ccc(F)cc3F)n12
→ 0.6, 14.0

# Quoted at random: two compounds from above.
# Values run as follows: TRPML1 agonist, TRPML1 blocker
Cc1ccc(S(=O)(=O)NCC(c2ccc(N(C)C)cc2)N2CCc3ccccc32)cc1 (stereo not given)
→ 2.5, 3.5
Cc1cc(=O)[nH]c2nnc(SCC(=O)Nc3ccc(F)cc3F)n12
→ 0.6, 14.0
